HNF4A DNA FP – change in binding of human HNF4 alpha to DNA; 360,000 tested, 0.3% active; AID 1224865; activity change, % at 10 µM; HNF4a-FITC DNA binding, fluorescence polarization, 1 h; in the data active = activity change above about 30%, passing the limit was not always enough;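 note: controls were the assay level and a saturating level of protein; the project sought stronger binding though the title names inhibitors; some compounds called inactive have numbers as strong as hits; positive values seem to mean higher polarization but the record does not say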
Target sequence (P41235 whole entry, looked up): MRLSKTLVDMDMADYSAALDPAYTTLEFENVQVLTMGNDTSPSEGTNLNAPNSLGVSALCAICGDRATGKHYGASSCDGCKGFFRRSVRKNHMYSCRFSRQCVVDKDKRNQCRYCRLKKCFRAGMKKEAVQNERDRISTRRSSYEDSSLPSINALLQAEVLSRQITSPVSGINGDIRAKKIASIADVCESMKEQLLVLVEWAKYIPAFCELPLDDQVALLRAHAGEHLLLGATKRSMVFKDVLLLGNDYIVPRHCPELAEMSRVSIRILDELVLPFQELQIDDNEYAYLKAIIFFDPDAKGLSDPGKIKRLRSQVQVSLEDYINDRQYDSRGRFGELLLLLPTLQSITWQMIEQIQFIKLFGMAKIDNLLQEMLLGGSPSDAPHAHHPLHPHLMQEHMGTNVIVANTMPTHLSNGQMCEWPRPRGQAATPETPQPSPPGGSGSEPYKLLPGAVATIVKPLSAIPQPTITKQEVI
ALR H2O2 inh – blocks human ALR sulfhydryl oxidase activity; inhibition, % (no concentration beside the values); 290,000 tested, 3.8% active; AID 485317; P55789; purified ALR, DTT oxidation, H2O2 HRP-luminol luminescence;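 active = mean and each replicate at 75% or more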;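 note: stock transfer was 7.5 nL into about 7.5 µL; 0% = neutral wells and 100% = wells with inactivated enzyme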
Target sequence (P55789 whole entry, looked up): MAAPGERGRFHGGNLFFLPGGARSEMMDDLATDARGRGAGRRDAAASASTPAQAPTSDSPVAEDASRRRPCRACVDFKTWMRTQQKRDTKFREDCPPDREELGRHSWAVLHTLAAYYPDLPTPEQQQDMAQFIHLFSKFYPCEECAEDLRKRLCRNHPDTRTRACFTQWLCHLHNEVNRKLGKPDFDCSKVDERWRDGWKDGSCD
rRNA inh HTS – inhibitors of bacterial rRNA selective over humanized ribosomes. E. coli WT GFP vs humanized-ribosome RFP mutants, fluorescence, 24 h; active compounds read low; DMSO median 0, no signal -100. GFP signal change (wild-type ribosome), % (concentration not given with the values). 350,000 tested, 1.6% active. AID 720706;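 active = significant combined selectivity score with lowered wild-type GFP, culture density cut under 30%, mutant RFP and density less affected; inactive = any of these conditions unmet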; note: one replicate is shown; some compounds called inactive have numbers as strong as hits
Beta2AR agonist – human beta-2 adrenergic receptor agonism by FAP. AID 504454. 340,000 tested, 0.43% active. P07550. response, % (no concentration beside the values). Am2.2-beta2AR cells, FAP receptor internalization, flow cytometry; reference of the scale not given here;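 active = response above a set limit, near 3 SD of response in nonfluorescent compounds, cut at about 42% in these data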;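 note: stock transfer was 100 nL into about 11 µL; a reference agonist was the positive control; negative values mostly stem from fluorescent compounds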
UCH37 DUB inh – inhibitors of human deubiquitinating enzyme UCH37; Q9Y5K5; purified proteasome/UCH37, Ub-AMC cleavage fluorescence; inhibition, % (concentration not given with the values); 330,000 tested, 0.33% active; AID 588478;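 active = mean of two replicates above 20%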;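 note: 0% = compound-free wells with enzyme and 100% = wells lacking proteasome; stock transfer was 100 nL into about 20 µL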
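Material: human UCH37 enzyme supplied as purified proteasome complex. Measure: % inhibition of Ub-AMC cleavage fluorescence. Medium: pH 7.4 Tris-HCl (50 mM) with ovalbumin, ATP-MgCl2, DTT. Times: 30 min preincubation with enzyme, 25 min cleavage at room temperature. Detection: AMC fluorescence intensity at 355/460 nm.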
E coli growth – inhibitors of Escherichia coli growth; OD600, 23 h; active compounds read low; OD600 absorbance (test concentration not listed); 330,000 tested, 0.21% active;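 active = OD600 absorbance below the run mean of sample wells minus 3.6 SD, in any replicate, cut at about 0.56 in these data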;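 note: stock transfer was 300 nL into about 60 µL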
FGF22 binding – FGF22 (human) thermal shift binding; Q9HCT0; recombinant FGF22 thermal shift, SYPRO orange fluorescence; percent of sucrose octasulfate shift, DMSO zero; calls only at 9.99 µM; 340,000 tested, 1.5% active;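 active = melting point raised past a set limit in the mean and every replicate; three in four hits are not shown here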
Target sequence (Q9HCT0 whole entry, looked up): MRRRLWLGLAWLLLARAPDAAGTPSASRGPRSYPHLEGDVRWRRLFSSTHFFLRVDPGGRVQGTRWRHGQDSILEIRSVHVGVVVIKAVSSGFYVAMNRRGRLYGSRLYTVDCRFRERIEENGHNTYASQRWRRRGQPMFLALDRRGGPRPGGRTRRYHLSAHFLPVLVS
rRNA inh HTS OD600 – second read-out of rRNA inh HTS, no call of its own (marks repeat the call); OD600 change, %; measured here: OD600 growth;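 optical density of the mix in the first replicate; 0 = DMSO median and -100 = no signal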
rRNA inh HTS RFP – further read-out of rRNA inh HTS, marked with its call; RFP signal change, %; measured here: RFP humanized mutant strains;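 first replicate; 0 = DMSO median and -100 = no signal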
Numbers without * were called inactive; i = inactive; x = no result given. Some of the compounds tested (hit frequency here may not be typical).

HNF4A DNA FP	ALR H2O2 inh	rRNA inh HTS	rRNA inh HTS OD600	rRNA inh HTS RFP	Beta2AR agonist	UCH37 DUB inh	E coli growth	FGF22 binding	Compound
1.0	-2	3	-5	-0.4	-8	19	0.72	i	CC1=CC(=C(C#N)C#N)C=C(C)N1CCN1CCNCC1
1.6	-5	4	5	3.0	10	6.6	0.69	i	CCOC(=O)c1ccc(N2CCOCC2)c(NC(=O)c2nccnc2C(=O)O)c1
-2.1	-8	-20	-13	24	-7	-35	0.7	i	Fc1ccc(-c2nc3ccccc3c3nc4ccccc4n23)cc1
1.4	-3	x	x	x	-10	-10	0.69	x	N#CC1=C(N)Nc2nc3ccccc3n2C1c1ccc(F)cc1 (stereo unspecified)
2.5	-9	11	18	-0.6	-4	4.3	0.65	x	COc1ccc(OCC(=O)NNC(=O)CCc2ccccc2)cc1
-1.1	-5	-1	8	0.9	5	-3.1	0.66	i	CC1C(=O)N2CCCc3cc(S(=O)(=O)N(C)c4ccccc4)cc1c32 (stereo unspecified)
0.8	-14	-5	-7	0.0	-16	x	x	i	O=C(N/N=C/c1cccnc1)NC12CC3CC(CC(C3)C1)C2
-3.8	x	x	x	x	-6	4.2	0.63	x	COc1ccccc1OCCN1CSC(=S)N(C)C1
-4.1	-1	x	x	x	-1	1.2	0.69	x	N/C(=N\OC(=O)N1CCOCC1)c1ccccc1
0.9	-9	5	10	-0.2	1	0.1	0.68	i	COc1ccc(S(=O)(=O)N(C)CC(=O)NCCN2CCOCC2)cc1
-0.2	-2	6	2	-2.3	-7	5.0	0.69	i	CCOC(=O)c1cnn(Cc2ccc(C)cc2)c1N
-32	x	x	x	x	-3	x	x	i	CN(C)CCN1C(=O)c2cccc3cc([N+](=O)[O-])cc(c23)C1=O
1.0	x	x	x	x	-14	5.8	0.67	x	Cc1ccc(Nc2nc(N)nc(CN3CCN(c4ccccc4F)CC3)n2)cc1
1.8	-3	x	x	x	10	4.1	0.69	x	N#Cc1c(C(F)(F)F)cc(-c2ccccc2)nc1SCC(=O)Nc1sc2c(c1C#N)CCC2
1.6	4	x	x	x	0	-22	0.69	x	CCCCc1c(C)c(C#N)c2[nH]c3ccccc3n2c1=O
0.8	x	1	9	-3.0	-1	i	0.73	x	CC(C)c1cc(NCCCN2CCOCC2)n2c(nc3ccccc32)c1C#N
0.0	-4	1	21	-2.2	-7	-0.5	x	i	CCOC(=O)[C@@H]1[C@H]2COc3ccc(Br)cc3[C@H]2N2C(=O)N(c3ccc(C(F)(F)F)cc3)C(=O)[C@]12C
1.4	x	1	9	1.0	-5	-0.5	0.65	i	O=C(Cc1ccc(Cl)cc1)OCC(=O)c1ccc[nH]1
-1.5	-6	-6	-9	-4.7	4	2.6	0.66	i	NNc1nc(-c2ccccc2Cl)c2cc(Br)ccc2n1
-3.1	0	x	x	x	-3	10	0.71	x	CCCCn1cnc2c(cnn2-c2ccc(F)cc2)c1=O
3.2	0	-19	-18	-4.0	-3	9.8	0.64	i	NC(=O)c1cccnc1Nc1ccccc1Cl
0.8	2	x	x	x	-24	5.1	0.69	x	COc1cc(-c2nc(-c3cccnc3)no2)cc(OC)c1OC
-1.3	-3	-18	-23	-6.9	-5	4.1	0.71	i	CCCCCCCCN=C1NC(=O)CS1
20	-1	x	x	x	2	x	x	x	Cc1cc(C(=O)N/N=C/c2cc([N+](=O)[O-])ccc2O)c2ccccc2n1
4.8	x	8	-1	-2.2	-7	2.5	0.69	i	CN(C)S(=O)(=O)c1ccc(NC(=O)COC(=O)Cn2[nH]c(=O)c3ccccc3c2=O)cc1
1.4	-4	x	x	x	4	i	0.7	x	Cc1oc2c(CN3CCCC3)c(O)ccc2c(=O)c1Oc1ccccc1Br
-1.4	-2	9	2	-0.9	-1	1.5	0.68	i	NC(=O)NCc1cccs1
-0.7	-14	-45	-71	-10	-5	x	x	i	O=C(CSc1ccc2ccccc2n1)N/N=C/c1ccccc1O
-0.3	-21	15	16	2.1	2	x	x	i	N/C(=N\OC(=O)CC1CCCCC1)c1ccc(Cl)cc1
-1.3	-21	14	17	1.8	-1	6.2	0.65	i	CCN(CC)CCNC(=O)C(=O)Nc1cc2c3c(c1)CC(=O)N3CCC2
2.6	91*	1	1	-0.8	2	-0.1	0.71	i	CN(CC(=O)Nc1cccc(F)c1)C(=O)CCc1nc2sc3c(c2c(=O)[nH]1)CCCC3
0.9	-7	x	x	x	-6	i	0.68	x	CN(C)C(=O)COc1ccc2cc(-c3ccccc3)c(=O)oc2c1
-1.4	3	x	x	x	1	-1.2	0.74	x	CCOC(=O)N1CCN(C(=O)CSc2nnc(-c3cc(OC)cc(OC)c3)o2)CC1
5.7	20	-36	-62	-0.6	17	6.3	0.71	i	Cc1ccsc1C(=O)N1CCCC(N2CCN(c3cccc(Cl)c3)CC2)C1 (stereo unspecified)
1.5	4	x	x	x	4	4.6	0.71	x	O=c1[nH]c2ccc(NC(=S)Nc3ccc(Cl)cc3Cl)cc2[nH]1
-0.5	9	x	x	x	-5	1.6	0.69	x	O=C1CC(c2ccc(F)cc2)CC(O)=C1C=NCCN1CCN(C(=O)Nc2ccccc2)CC1 (stereo unspecified)
-0.1	-1	x	x	x	-6	-0.9	0.68	i	COc1ccc(-n2cc(CN(C)CCO)c(-c3cccc(F)c3)n2)cc1
0.9	88*	-10	-17	20	0	x	x	i	COc1ccc(C(c2c[nH]c3ccccc23)c2c[nH]c3ccccc23)cc1O
-1.1	-9	x	x	x	-11	-0.9	0.72	x	CCCCN1C(=O)NC(NS(=O)(=O)c2ccc(N)cc2)(C(F)(F)F)C1=O (stereo unspecified)
5.7	94*	x	x	x	14	x	x	x	CN1/C(=C/C=N/n2cnnc2)C(C)(C)c2ccccc21
x	10	x	x	x	x	8.2	0.59	x	Cc1cc(Nc2cccc(O)c2)c2ccccc2n1
0.5	x	-7	-7	-0.5	x	x	x	i	O=C(NCc1ccc(Cl)c(Cl)c1)c1cc(C2CCCCN2C(=O)c2cccs2)on1 (stereo unspecified)
0.0	-16	4	1	0.9	-10	-1.1	0.7	i	COc1ccc(S(N)(=O)=O)cc1C(=O)OCCCOC(=O)c1cc(S(N)(=O)=O)ccc1OC
-0.2	x	9	9	3.1	-14	0.2	0.66	x	CN(C(=O)c1cccc(NC(=O)Cc2ccc(NC(=O)C3CCN(C(=O)c4ccccc4)CC3)cc2)c1)C1CCCC1
5.2	-10	-3	13	-1.3	27	7.4	0.74	x	COc1ccc(NC(=O)CN2C(=O)/C(=C3\SC(=S)N(C4CCS(=O)(=O)C4)C3=O)c3ccccc32)cc1 (stereo unspecified)
-0.3	x	12	-3	1.2	-3	3.0	0.69	i	Cc1ccc2oc(=O)n(CCOc3ccccc3C)c2c1
-3.0	11	-1	0	8.0	-4	4.8	0.72	i	Cc1cccc(N2CCN(C(=O)c3oc4ccc(Br)cc4c3C)CC2)c1C
5.3	0	-4	-11	-5.2	1	x	x	i	Cc1nn(-c2ccccc2)c2nc(N)c(C#N)c(-c3ccc(C(C)(C)C)cc3)c12
-0.6	-4	x	x	x	4	-1.2	0.68	x	CCC(C)(C)NC(=O)c1cc(OC)c(OC)cc1[N+](=O)[O-]
-1.8	-4	x	x	x	12	8.7	0.7	x	Cc1nn(C)c(C)c1N1C(=O)c2cccc3c(Br)ccc(c23)C1=O
0.3	25	12	9	2.3	1	-2.7	0.68	i	Cc1cnc(C(=O)OCC(=O)Nc2cccc3ccccc23)cn1
5.4	x	-8	-2	-0.9	-5	0.5	0.63	x	Nc1cc(N)c2c(c1)C(=O)c1ccccc1-2
0.7	0	11	12	4.9	-1	1.4	0.71	i	S=C(Nc1ccccc1)c1nc2ccccc2s1
-5.9	28	11	-2	0.3	9	0.2	0.69	i	O=C(CSc1ccc(-c2ccc(F)cc2)nn1)NCCc1ccccc1
1.2	-2	x	x	x	3	0.2	0.73	x	COc1cccc(N2CC(C(=O)NC3CCCCC3)CC2=O)c1 (stereo unspecified)
-0.2	x	-5	-26	-8.6	-3	4.1	0.7	i	CCCCN1CCS(=O)(=O)N(Cc2ccccc2Br)CC(C(=O)OC)C1 (stereo unspecified)
1.9	1	-25	-25	0.9	8	5.0	0.6	i	Cc1cc(Cl)cc(C)c1OCCOCCNCc1ccccc1
1.9	18	8	-8	16	2	2.0	x	i	CC[C@H](C)C(C(=O)N1CCN(C(=O)OC(C)(C)C)CC1)n1cc(C(Cc2ccc(O)cc2)NC(=O)OC(C)(C)C)nn1 (stereo partly specified)
2.2	-7	x	x	x	-3	3.7	0.81	x	O=C(c1ccc2c(c1)OCCO2)N(c1ccccn1)C1CCCCC1
-2.8	-3	x	x	x	-6	1.7	0.72	x	Cc1nn(-c2ccc(Cl)c(Cl)c2)c(=O)c2ccccc12

(list continues)
HNF4A DNA FP	ALR H2O2 inh	rRNA inh HTS	rRNA inh HTS OD600	rRNA inh HTS RFP	Beta2AR agonist	UCH37 DUB inh	E coli growth	FGF22 binding	Compound
0.0	x	3	2	2.7	1	4.2	0.62	i	CC(=O)c1ccc(N2CCN(C(=O)CNS(=O)(=O)c3ccc4c(c3)OCCCO4)CC2)c(F)c1
-2.3	51	-19	-17	-6.0	-27	x	x	i	Cc1ccc(CCSc2ccc(C(C)C)cc2)cn1
1.3	-27	-28	-29	-1.8	8	1.3	0.69	i	COc1ccccc1C(=O)COC(=O)CNS(=O)(=O)c1ccc(C)cc1
0.4	11	2	12	4.5	-12	-1.7	0.68	i	O=C(O)[C@@H]1CSC2c3ccccc3C(=O)N21 (stereo partly specified)
12	-28	-7	7	-3.1	17	0.2	0.66	i	O=C(Nc1cc(C(F)(F)F)ccc1-n1cncn1)c1ccc([N+](=O)[O-])o1
-1.8	-8	6	12	0.4	-2	3.4	0.71	i	COc1ccc(OC)c(NC(=O)CCC(=O)Nc2nnc(C(C)C)s2)c1
2.5	0	-29*	-8.4*	-0.5*	26	1.1	0.72	i	O=C(N=Nc1c(O)[nH]c2ccc(Br)cc12)c1ccccc1-n1cccc1
-2.4	0	2	16	-1.7	5	0.4	0.7	i	COC(=O)c1ccc(COC(=O)c2cnc(Cl)c(Cl)c2)cc1
15	1	24	16	22	23	1.8	0.71	i	COc1ccc2c(C)nc(Nc3nc(-c4ccccc4)cc(=O)[nH]3)nc2c1
-2.6	-5	6	7	0.4	-12	-2.1	0.7	i	CC(=O)c1ccccc1NC(=O)COC(=O)CSCC(=O)Nc1cc(C)on1
-8.4	-13	x	x	x	8	6.1	0.72	x	COc1cc(/C=C/c2cc(OC(C)=O)c3ccccc3n2)c(OC(C)=O)c([N+](=O)[O-])c1

Arranged by the number under HNF4A DNA FP (falling): 6 from the list above.
HNF4A DNA FP	ALR H2O2 inh	rRNA inh HTS	rRNA inh HTS OD600	rRNA inh HTS RFP	Beta2AR agonist	UCH37 DUB inh	E coli growth	FGF22 binding	Compound
15	1	24	16	22	23	1.8	0.71	i	COc1ccc2c(C)nc(Nc3nc(-c4ccccc4)cc(=O)[nH]3)nc2c1
12	-28	-7	7	-3.1	17	0.2	0.66	i	O=C(Nc1cc(C(F)(F)F)ccc1-n1cncn1)c1ccc([N+](=O)[O-])o1
1.3	-27	-28	-29	-1.8	8	1.3	0.69	i	COc1ccccc1C(=O)COC(=O)CNS(=O)(=O)c1ccc(C)cc1
0.4	11	2	12	4.5	-12	-1.7	0.68	i	O=C(O)[C@@H]1CSC2c3ccccc3C(=O)N21 (stereo partly specified)
-1.8	-8	6	12	0.4	-2	3.4	0.71	i	COc1ccc(OC)c(NC(=O)CCC(=O)Nc2nnc(C(C)C)s2)c1
-2.6	-5	6	7	0.4	-12	-2.1	0.7	i	CC(=O)c1ccccc1NC(=O)COC(=O)CSCC(=O)Nc1cc(C)on1
